Screening data from PubChem BioAssay.
Mtb MbtI inh – inhibitors of Mycobacterium tuberculosis siderophore enzyme MbtI. P9WFX0. purified MbtI enzyme, fluorescence intensity read-out. inhibition, %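 (about 17 µg/mL by stock and volumes)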. hit rate 0.89% among 100,000. AID 493033;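 active = above 50% in both replicates, above 80% if mildly self-fluorescent; inactive = the rest, strongly fluorescent compounds included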;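 also: 0% = mean of negative and 100% = mean of positive controls; one replicate is shown; some compounds called inactive have numbers as strong as hits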
Target sequence (P9WFX0 whole entry, looked up): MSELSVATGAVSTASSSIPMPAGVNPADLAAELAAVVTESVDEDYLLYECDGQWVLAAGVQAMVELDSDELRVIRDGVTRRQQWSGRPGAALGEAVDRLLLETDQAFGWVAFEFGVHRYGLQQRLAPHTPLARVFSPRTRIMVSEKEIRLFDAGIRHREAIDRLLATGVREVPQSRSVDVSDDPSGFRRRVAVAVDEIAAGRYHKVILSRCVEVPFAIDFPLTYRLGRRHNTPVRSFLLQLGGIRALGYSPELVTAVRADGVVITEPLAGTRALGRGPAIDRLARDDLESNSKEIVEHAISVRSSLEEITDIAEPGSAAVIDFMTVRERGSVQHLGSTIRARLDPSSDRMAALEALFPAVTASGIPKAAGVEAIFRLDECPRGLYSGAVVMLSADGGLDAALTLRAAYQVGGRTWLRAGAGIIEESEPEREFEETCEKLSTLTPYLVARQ
Polio RdRp inh – inhibitors of poliovirus RNA polymerase binding and polymerization; % elongation, % (compound at 16.7 µg/mL); hit rate 0.66% among 150,000; poliovirus polymerase elongation, fluorescence polarization; active compounds read low; in the data active = % elongation below about 90%; also: some results filed as inactive read as strong as hits
Mtb MenB inh – blocks the Mycobacterium tuberculosis MenB enzyme; AID 540299; hit rate 0.43% among 100,000; MenB enzyme assay, absorbance read-out; some hits fall short of the stated cut; inhibition, %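 (about 12 µg/mL by stock and volumes)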; P9WNP5;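 active = mean of two replicates above 30%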;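 also: 0% = no compound and 100% = wells with inactive enzyme; the first replicate is given; strong numbers were not always called active; inactives centre near -10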
Target sequence (P9WNP5 whole entry, looked up): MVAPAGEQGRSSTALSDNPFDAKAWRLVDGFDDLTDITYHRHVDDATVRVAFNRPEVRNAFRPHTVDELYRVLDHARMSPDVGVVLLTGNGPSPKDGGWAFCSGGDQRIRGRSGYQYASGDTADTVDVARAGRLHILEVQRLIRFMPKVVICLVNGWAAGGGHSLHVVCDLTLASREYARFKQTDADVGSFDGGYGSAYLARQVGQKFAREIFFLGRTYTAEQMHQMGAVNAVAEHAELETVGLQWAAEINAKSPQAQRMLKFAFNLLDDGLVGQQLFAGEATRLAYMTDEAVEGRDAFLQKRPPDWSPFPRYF
Polio RdRp inh intensity – also measured in Polio RdRp inh; calls as there; % elongation; measured here: total intensity read-out; formula for this scale not given here;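 total fluorescence in place of polarization; lower means less elongation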
Active calls of the source: *; i = inactive; . = not tested or not shown.

SMILES	Mtb MbtI inh	Polio RdRp inh	Polio RdRp inh intensity	Mtb MenB inh
CC(C)(CO)NC(=O)CSc1ccc(C(F)(F)F)cc1Cl	.	108	105	-2
CC1(C)CC(NC(=O)/C=C/c2ccc(F)cc2)CC(C)(C)N1	9	101	99	.
O=C(Cc1n[nH]c(=O)[nH]c1=O)N/N=C/c1ccccc1	13	103	102	-20
O=C(Cn1cnc2c(cnn2-c2ccc(F)cc2)c1=O)NC1CCCC1	6	100	100	-14
NCC1NCCc2ccccc21 (stereo not drawn)	-21	101	103	-34
O=c1c(N2CCCCC2)csc2ccccc12	-4	103	102	-262
Cc1nc2ccccc2n1CC(=O)OCC(=O)N1c2ccccc2CC1C (stereo not drawn)	-3	100	104	.
S=C(Nc1ccccc1)Nc1ccccc1-n1cccc1	-9	104	103	-13
Cn1ncc2c(c(SCc3ccc(Cl)cc3Cl)nn2C)c1=O	21	101	102	-17
CCOC(=O)Cc1csc(N(C)C)n1	10	99	104	8
CCn1c(=S)sc2c(=O)n3[nH]c(=O)c4ccccc4c3nc21	22	102	102	-22
COc1ccccc1NS(=O)(=O)c1ccc(C)c(C(=O)N2CCCC2)c1	-6	95	93	-34
CCNC(=O)COc1ccc(OCc2ccccc2)cc1	1	100	105	3
O=C(COC(=O)C1CC2CCCC(C1)C2=O)NC1CCS(=O)(=O)C1 (stereo not drawn)	-9	104	111	-1
CCOC(=O)c1c(Nc2nc3ccccc3nc2N2CCN(C(=O)OCC)CC2)sc(C)c1C	-7	106	107	-14
NCCC(c1ccccc1)c1ccccc1	.	106	109	1
COC(=O)c1cccc(N2C(=O)c3ccc(C(=O)O)cc3C2=O)c1	-16	99	100	-3
CN(/N=C/c1ncc(C(F)(F)F)cc1Cl)C(=O)Nc1ccc(Cl)cc1	-10	105	107	4
C=CCn1c(SCCN2CCCCC2)nnc1C1CCCCC1	14	101	105	8
CCC(=O)c1ccc(OCC(O)CN2CCN(S(=O)(=O)N3CCCCC3)CC2)cc1 (stereo not drawn)	-3	102	106	-8
CN(C)Cc1nc2c([nH]1)c(=O)[nH]c(=O)n2C	-8	99	102	-1
COC(=O)c1ccc(C)c(NC(=O)C(NC(C)=O)C(C)C)c1 (stereo not drawn)	1	109	112	-8
Cc1c(C(=O)N2CCNCC2)oc2ccccc12	16	102	104	16
COc1ccc(CN(Cc2cccn2C)S(=O)(=O)c2ccccc2)cc1	-12	106	111	11
CC1=C(C(N)=O)C(c2ccccc2F)NC(=O)N1 (stereo not drawn)	-1	99	100	-19
CC1CCc2ccc(F)cc2N1S(=O)(=O)c1ccc(Cl)s1 (stereo not drawn)	-2	102	102	-12
NC(=S)Cc1ccc(CC(N)=S)o1	82*	95	103	-23
Cc1csc(NC(=O)c2cccs2)n1	-5	101	106	.
O=C(Nc1nc2nc(-c3ccccc3)cc(=O)n2[nH]1)c1ccccc1	3	102	105	2
Cc1ccc(CNC(=O)CCn2nc(C)c(S(=O)(=O)N3CCCC3)c2C)cc1	-8	101	103	-12
CN=c1scc(-c2ccc(C)c(C)c2)n1/N=C(\C)c1cccnc1	-3	104	106	-42
N#Cc1ccc(CSC2=Nc3ccccc3C3CC=NN23)cc1 (stereo not drawn)	-15	97	94	8
CNC(=O)c1c(NC(=O)/C=C/c2cccs2)sc(C)c1C	7	103	111	-2
CCOC(=O)c1cc(=O)n2[nH]c(-c3ccc(C)cc3)cc2n1	-130	99	103	-5
Cc1ccc(NC(=O)CCn2nc(C)cc2C)c(C)c1	0	102	99	0
O=C(O)c1cnc(SCC(=O)N(C2CCCCC2)C2CCS(=O)(=O)C2)n1-c1ccc(F)cc1 (stereo not drawn)	0	107	109	2
O=C(O)C1CCN(c2nc3ncccc3nc2-c2ccccc2)CC1	2	102	111	-134
O=C(O)CCCC(=O)Nc1ccccc1N1CCOCC1	.	98	107	-7
CCc1ccccc1NC(=S)N1CCC(N(C)CCN2CCOCC2)CC1	-5	101	105	0
CNC(=O)CSc1nnc(C(F)(F)F)n1N	13	97	95	6
O=S(=O)(c1ccc(Cl)cc1)N1CCOCC1	.	106	110	-9
Cc1nc(CSCc2ccc(Cl)cc2Cl)cs1	-3	107	105	-10
CN(C(=O)COC(=O)c1ccccc1C(=O)N1CCN(c2ccccc2)CC1)c1ccccc1	-1	100	107	-11
O=C(Cn1ncc2ccc(Cl)cc21)NC1CCCC1	-5	106	103	-6
COc1ccccc1C(CNc1nc(C(F)(F)F)nc2ccccc12)N(C)C (stereo not drawn)	-3	98	98	-40
CC(C)Cc1nc2ccccc2[nH]1	5	103	101	1
COc1ccccc1NNC(=O)c1cccnc1Oc1ccccc1	0	103	105	-28
CCCCCn1cnc2c1c(=O)[nH]c(=O)n2C	-12	102	103	-3
CC(C)(C)C1(C)OC(=O)C(=Cc2ccc(C(=O)O)cc2)C(=O)O1 (stereo not drawn)	15	100	102	-16
COc1ccc(C(=O)N(c2ccccn2)c2ccccn2)cc1OC	10	102	105	-2
O=C(CSc1nc2c(c(=O)[nH]1)CN(Cc1ccc(Cl)cc1)CC2)NCc1ccccc1	15	98	107	-26
CCC(=O)Nc1ccccc1C(=O)Nc1ccccc1	.	107	105	-11
Cc1cccn2cc(-c3cccc(S(=O)(=O)N4CCOCC4)c3)nc12	-370	101	104	-3
NC(=O)c1cc(S(=O)(=O)N2CCOCC2)ccc1F	2	102	103	3
Cc1ccc(NC(=O)CC2(c3ccc(Br)cc3)C(=O)c3ccccc3C2=O)cc1	4	101	100	-14
CCc1ccc(NC(=O)c2cnc3sccn3c2=O)cc1	82	104	104	-14
CCC(Sc1nncn2c1cc1sccc12)C(=O)Nc1ccccc1C (stereo not drawn)	-13	103	102	-36
CCCCNC(=O)C1CC(=O)N(c2ccc(Cl)cc2)C1 (stereo not drawn)	-20	100	102	-21
O=C(O)/C=C/c1cc(C(F)(F)F)cc(C(F)(F)F)c1	12	.	.	9
CCc1cc2c(cc3c(=O)n(CCCC(=O)NCc4ccccc4)ncn32)s1	0	100	102	4

Single records, from the list above:
CC(C)(C)C1(C)OC(=O)C(=Cc2ccc(C(=O)O)cc2)C(=O)O1 (stereo not drawn) is listed as Mtb MbtI inh: 15; Polio RdRp inh: 100; Polio RdRp inh intensity: 102; Mtb MenB inh: -16
COc1ccccc1NS(=O)(=O)c1ccc(C)c(C(=O)N2CCCC2)c1 is listed as Mtb MbtI inh: -6; Polio RdRp inh: 95; Polio RdRp inh intensity: 93; Mtb MenB inh: -34
CN(C)Cc1nc2c([nH]1)c(=O)[nH]c(=O)n2C is listed as Mtb MbtI inh: -8; Polio RdRp inh: 99; Polio RdRp inh intensity: 102; Mtb MenB inh: -1

Additional compounds
SMILES	Mtb MbtI inh	Polio RdRp inh	Polio RdRp inh intensity	Mtb MenB inh
Cc1nnc(Nc2ccc3c(c2)nc2n3CCN(C3CCCCC3)C2)c2ccccc12	7	103	103	14
Cc1ccc(S(=O)(=O)NC2CCCC2)cc1	-9	101	103	-42
CCC(=O)Nc1ccccc1-c1nnc(SCc2ccccc2)[nH]c1=O	0	98	103	-10
COc1ccc(N(CCC#N)S(=O)(=O)c2ccc(Cl)cc2)cc1	-3	102	102	35*
COc1ccc(C2=NOC(C(=O)NC(C)C)C2)cc1 (stereo not drawn)	2	103	109	-9
Cc1cc(NC(=O)N2CCC(CN3CCC(C)CC3)CC2)ccc1Br	-11	103	103	-8
COC(=O)CNC(=O)c1coc2ccccc2c1=O	14	106	104	4
CC(C)Oc1ccc(NC(=O)C2COc3ccccc3O2)cc1 (stereo not drawn)	-13	104	101	-25
Cc1[nH]nc2c1C(c1ccccc1F)N(C)C2=O (stereo not drawn)	-10	99	104	-22
CCN1C(N)=C(C#N)C(c2ccc3[nH]c4ccccc4c3c2)c2nc(C)oc21 (stereo not drawn)	45	102	103	-68
CC(C)OC(=O)c1cccc(C(=O)Oc2ccccc2)n1	-3	99	101	1
COc1ccc(/C=C/C(=O)C(C(N)=O)=C2SCS2)cc1	23	104	104	-30
Cc1cc(I)ccc1NC(=O)CC(C)C	2	102	105	3
COc1ccc(NC(=O)C(C)NC(=O)c2ccccc2NC(=O)c2ccco2)cc1 (stereo not drawn)	.	107	111	-18
O=C(C1CC2CCCN2C12C(=O)Nc1ccccc12)N1CCN(c2ccccc2)CC1 (stereo not drawn)	-15	100	101	0
COc1ccc(C2Nc3ccccc3C(=O)N2c2ccccc2)cc1 (stereo not drawn)	100	103	103	-34
C=CCSc1n[nH]c(=O)[nH]c1=O	14	101	102	5
O=C(O)c1ccc(CNCc2ccccc2)s1	-12	102	101	-15
COc1ccc(/C=C/C(=O)N2CC(=O)Nc3ccccc32)cc1S(=O)(=O)N1CCOCC1	3	102	97	-20
CCN(CC)S(=O)(=O)c1ccc2c(c1)nc(CCC(=O)Nc1ccc(C(C)C)cc1)n2CC	-10	105	101	-34
C/C(N)=C(/C#N)C(=O)CSc1n[nH]c(N)n1	3	103	107	-9
CP(=O)(O)C(c1ccccc1)C(F)(F)C(F)(F)C(F)(F)F (stereo not drawn)	-10	103	100	0
Cn1cc(/C(Cc2ccccc2)=N\O)c2ccccc21	.	99	94	-24
CCOc1ccc(N=C2SCCCN2C(=O)c2ccc(C#N)cc2)cc1	-5	102	109	1
O=C(O)CCC(=O)NCc1ccco1	3	101	104	3
CCN(CC)S(=O)(=O)c1cc(C(=O)N2CCN(Cc3ccc4c(c3)OCO4)CC2)ccc1Cl	-2	.	.	-49
CC(C)C(=O)NCc1nc(-c2ccccc2)no1	-5	104	102	-8
S=c1ccc(-c2ccc(Cl)cc2)nn1-c1ccccc1	7	101	105	-6
O=C(CCNc1ccccc1C(=O)O)c1ccccc1	i	101	104	-30
CC(C#N)(c1ccccc1)c1ccccc1	-15	104	103	-13

Pulled by compound from the entries so far, 3 records:
SMILES	Mtb MbtI inh	Polio RdRp inh	Polio RdRp inh intensity	Mtb MenB inh
COc1ccc(/C=C/C(=O)N2CC(=O)Nc3ccccc32)cc1S(=O)(=O)N1CCOCC1	3	102	97	-20
C=CCSc1n[nH]c(=O)[nH]c1=O	14	101	102	5
CCOc1ccc(N=C2SCCCN2C(=O)c2ccc(C#N)cc2)cc1	-5	102	109	1

(listing goes on)
SMILES	Mtb MbtI inh	Polio RdRp inh	Polio RdRp inh intensity	Mtb MenB inh
Cc1cc(/C=N/NC(=O)c2cccnc2)c(C)n1CC(C)C	7	100	106	2
COc1ccc(NC(=S)N2CCC(N(C)CCN3CCOCC3)CC2)cc1Cl	-13	100	103	-1
Cc1ccc(C(=O)Nc2ccc3c(c2)n(C)c(=O)n3C)cc1	2	100	104	-6
O=C1CCCN1CCCn1c(-c2ccco2)csc1=Nc1ccc(F)cc1	-6	104	108	-6
COc1cccc(C(=O)OCC(=O)c2ccccc2)c1OC	-15	104	111	9
C=C(C)C1Cc2nc(N)nc(C)c2C1 (stereo not drawn)	59	101	99	2
CN1C(=O)C(=Cc2ccc(-c3cccc(C(=O)O)c3)o2)C(=O)N(C)C1=S	77	104	101	-15
O=C(/C=C/c1cccs1)N1CCCN(C(=O)/C=C/c2cccs2)CC1	26	104	102	-9
O=C(Cc1c(F)c(F)c(F)c(F)c1F)OC12CC3CC(C1)C(=O)C(C3)C2	-10	104	99	-7
OCCC1CCCCN1CC(O)c1ccccc1 (stereo not drawn)	-1	105	100	-29
CC1CCN(S(=O)(=O)c2ccc3[nH]c4c(c3c2)CCCC4)CC1	49	104	100	-20
CCOC(=O)C1CCN(Cn2c(=S)n(-c3ccc(OC)cc3)c3ccccc32)CC1	8	102	108	2
O=C(Nc1cccc2ccccc12)OCCn1ncc2ccccc2c1=O	-6	107	109	-19
CCCCC1CCC(C(=O)Oc2ccc(OCC)cc2)CC1 (stereo not drawn)	0	103	104	-24
O=C(Nc1ccccc1)C(C(F)(F)F)C(F)(F)F	48	100	102	4
Nc1nc(CSc2nnc(C3CC3)n2C2CC2)nc(Nc2ccccc2)n1	-1	99	105	-8
O=C(c1ncoc1-c1cccs1)N1CCN(Cc2cccc3ccccc23)CC1	39	103	102	-51
Cc1cc(C)cc(C(=O)OCC(=O)c2cc3c4c(c2)CC(=O)N4CCC3)c1	2	101	107	-15
CCN(C(=O)CSc1nnnn1-c1ccccc1)C1CCS(=O)(=O)C1 (stereo not drawn)	-7	105	104	0
Cc1ccc(C(=O)NN2CCc3cc4ccc(C)cc4nc32)cc1	-14	99	110	-18
COc1cccc(N2CCc3c(C)nc4ccc(Cl)cc4c32)c1	108	98	98	-12
Cc1ccc(S(=O)(=O)N2CCC(=O)c3ccccc32)cc1	.	99	100	-10
COc1ccc2ccc(O)c(CN3CCN(C(=O)C4CC4)CC3)c2c1	-49	99	105	-6
CCCCc1ccc(NCc2nc(-c3ccc(C)cc3)no2)cc1	-81	100	99	-11
CCn1cc(C(=O)N2CCCCC2)c(=O)c2cc(S(=O)(=O)N3CCCC3)ccc21	1	104	100	4
CCC1CCCCN1C(=O)CN1C(=O)c2ccccc2S1(=O)=O (stereo not drawn)	-3	102	101	-2
CCCC[C@@H](C)/C=C(C)/C=C(\C)C(=O)NC1=C[C@@](O)(/C=C/C=C/C=C/C(=O)NC2=C(O)CCC2=O)[C@@H]2O[C@@H]2C1=O	58	103	101	.
C=CCOc1cccc(C(=O)NCCOC)c1	-9	102	103	1
CCCC1=NN(c2ccccc2)C(=O)/C1=C/c1ccc(Cl)cc1	3	110	114	4
CC(=O)Nc1ccc(NCc2cccs2)cc1	-8	104	106	-32
